High-throughput results deposited in PubChem BioAssay by National Center for Advancing Translational Sciences (NCATS).
PINK1 modulator: PINK1 expression modulation. PINK1 immunofluorescence, high-content cytometry, 24 h. AID 624263. Potency, µM (doses to about 76.6 µM), for inactives: at the highest dose activation (PINK1 increase), actives largely listed as activators. 0.2% of 410,000 active; active = well fitted activation curve with a large enough effect; inconclusive = small, poorly fitted or top-dose-only effect; inactive = flat fitted curve, though single readings scatter; cell line not stated here;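 also: potency is read from the fitted curve at half-maximal effect; % of control where 0% means no effect; nearly all actives have a fitted effect of over 65% in size; a mitochondrial uncoupler was the plate control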
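Compound titrations (5 concentrations, 24 h) on a stable cell line; DMSO and CCCP controls. Endpoint: fixed-cell PINK1 immunofluorescence with mitochondrial, cell and nuclear markers, scanned by microplate cytometer.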
Six1-Eya2 blk: inhibitors of human Six1/Eya2 interaction. AlphaScreen GST-Six1/His-Eya2 binding, biochemical; active compounds read low; control for the full effect not named in the record. activity change, % (concentration not given with the values). 0.56% of 360,000 active; in the data active = activity change below about -65%; inconclusive = about -30% to -65%; inactive = above about -30%; also: % is scaled to controls: 0 for no effect and ±100 for the full control effect
Target sequence (O00167 whole entry, looked up): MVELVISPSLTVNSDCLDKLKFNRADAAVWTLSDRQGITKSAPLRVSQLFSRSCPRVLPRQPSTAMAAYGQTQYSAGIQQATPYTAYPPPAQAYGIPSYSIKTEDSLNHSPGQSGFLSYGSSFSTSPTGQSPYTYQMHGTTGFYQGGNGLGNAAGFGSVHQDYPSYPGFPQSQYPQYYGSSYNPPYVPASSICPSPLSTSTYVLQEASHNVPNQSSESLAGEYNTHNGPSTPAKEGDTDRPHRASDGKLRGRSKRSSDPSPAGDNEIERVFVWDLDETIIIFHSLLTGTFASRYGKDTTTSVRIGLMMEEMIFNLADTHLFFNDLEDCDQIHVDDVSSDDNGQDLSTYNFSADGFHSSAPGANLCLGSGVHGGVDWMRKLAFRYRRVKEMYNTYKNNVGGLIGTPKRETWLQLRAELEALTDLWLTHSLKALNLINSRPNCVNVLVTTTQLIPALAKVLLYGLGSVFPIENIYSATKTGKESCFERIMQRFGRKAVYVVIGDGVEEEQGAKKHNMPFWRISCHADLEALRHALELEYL
Target sequence (Q15475 whole entry, looked up): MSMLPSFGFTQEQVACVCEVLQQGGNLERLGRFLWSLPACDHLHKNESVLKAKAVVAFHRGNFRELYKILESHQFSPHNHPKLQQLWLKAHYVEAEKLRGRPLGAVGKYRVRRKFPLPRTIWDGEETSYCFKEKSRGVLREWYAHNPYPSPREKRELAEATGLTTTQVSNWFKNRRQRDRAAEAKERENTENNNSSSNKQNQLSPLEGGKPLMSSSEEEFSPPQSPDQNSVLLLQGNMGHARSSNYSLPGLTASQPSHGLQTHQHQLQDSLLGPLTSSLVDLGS
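Homogeneous AlphaScreen proximity assay pairing GST-Six1 with His-tagged Eya2 (added as 5X mix: 250 nM and 500 nM) in 50 mM Tris pH 8.0, 300 mM NaCl, 1 mM TCEP. Glutathione donor and nickel acceptor beads; 1 h, 37 °C, dark.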
TRPML1 ag: agonists of human TRPML1 channel; activation, % (no concentration beside the values); TRPML1-expressing cells, Ca2+ dye fluorescence, FDSS; host cell line not named in the record; reference of the full effect not given here; Q9GZU1; 0.12% of 410,000 active; in the data active = activation above about 50%; inconclusive = about 30% to 50%; inactive = below about 30%; also: 0% is about no effect; the text of the record puts the active cut at 80%
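Tetracycline-induced TRPML1-DL cells are seeded and incubated overnight before loading with a no-wash Ca2+ dye and quencher. Agonist activity is taken from the 110 s fluorescence read following compound pin-transfer on an FDSS, before EC80 54-4 challenge.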
D2 ag: human D2 receptor agonism in beta-arrestin assay; 0.084% of 360,000 active; DiscoveRx PathHunter D2 beta-arrestin, luminescence, 90 min; 100% = 57 uM dopamine signal; activation, % (concentration not given with the values); in the data active = activation above about 40%; inconclusive = about 15% to 40%; inactive = below about 15%; also: compound concentration not given in the record; the text of the record calls up to 30% inactive
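Agonist mode: compounds alone added to overnight-plated D2 PathHunter cells for 90 min at 37 C, with 57 uM final dopamine (EC100) defining full response. Beta-arrestin recruitment detected by chemiluminescent reagent, read after 1 h at ambient temperature.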
CtBP-E1A inh: blocks the CtBP interaction with E1A; AlphaScreen GST-E1A/His-CtBP binding, 1536-well; active compounds read low; control for the full effect not named in the record; activity change, % (test concentration not listed); 0.49% of 340,000 active; in the data active means activity change below about -65%; inconclusive means about -30% to -65%; inactive means above about -30%; also: % is scaled to controls: 0 for no effect and ±100 for the full control effect
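Homogeneous bead-based format: GST-tagged E1A captured on glutathione donor beads, His-tagged CtBP on nickel acceptor beads; compounds precede bead addition by 2 h at 37 °C.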
TRPML1 inh: blocks the human TRPML1 channel. Q9GZU1. TRPML1-inducible cells, Ca2+ dye fluorescence, FDSS; active compounds read low; inhibition of EC80 agonist-evoked calcium signal. activity change, negative = inhibition, % (test concentration not listed). 0.02% of 390,000 active. AID 624415; in the data active means activity change below about -50%; inconclusive means about -30% to -50%; inactive means above about -30%;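 also: stimulus is agonist 54-4 at its EC80 concentration; % is scaled to controls: 0 for no effect and ±100 for the full control effect; compound concentration not given in the record; the text of the record puts the active cut at -80%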
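Tet-induced TRPML1-DL cells loaded with Ca8 no-wash calcium dye were read kinetically on FDSS. Compound addition was followed by EC80 agonist 54-4 (4 uM final); inhibition was read over 110 s.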
An asterisk follows results filed as active; ? = inconclusive; · = not tested or not shown; [ ] = dose if it differs, or a comment.

SMILES	PINK1 modulator	Six1-Eya2 blk	TRPML1 ag	D2 ag	CtBP-E1A inh	TRPML1 inh
CC1(OC(=O)c2cccs2)C(=O)C=C2C=C3CCCN3C=C2C1=O (centres undefined)	-0.9%	-10	-0.5	2.3	-5	9
O=C(c1ccccc1)N1CCC(c2nc(-c3ccc(S(=O)(=O)N4CCOCC4)cc3)no2)CC1	1.0%	-2	-1.0	2.2	-1	8
CCc1ccc(-c2ccc(SCC(=O)Nc3nnc(C)s3)nn2)cc1	0.8%	3	-0.8	1.1	-18	4
COc1ccc(-c2cn3nc4c(nc3n2)CCCC4)cc1	9.6%	-21	7.3	0.6	-17	-9
COc1cc(C(c2sc3nc(C)nn3c2O)N2CCOCC2)cc(OC)c1OC (centres undefined)	0.9%	4	0.4	4.5	3	-8
COc1ccccc1S(=O)(=O)N(C)C[C@H]1OCc2cnnn2CCCC(=O)N([C@H](C)CO)C[C@H]1C	0.9%	2	·	-2.4	-5	·
CCCCN(CCCC)CCNC(=O)c1cc(=O)[nH]c2ccc(S(=O)(=O)N3CCCCCC3)cc12	0.0%	·	0.2	·	·	16
CN(C)c1ccc(C(CNC(=O)COc2ccc(Cl)cc2)N2CCOCC2)cc1 (centres undefined)	-0.4%	·	-0.7	·	·	-6
Nc1nc(SCC(=O)N2CCCC2)[nH]c(=O)c1-c1ccccc1	-1.7%	2	-1.3	-1.1	10	11
O=C(NCCC1CCCCN1S(=O)(=O)c1cccs1)C(=O)NCc1ccccc1 (centres undefined)	3.7%	0	0.7	1.7	1	18
NS(=O)(=O)c1ccc(CCNC(=O)c2cc3ccccc3s2)cc1	0.1%	-2	-0.6	4.3	0	-8
NC(=O)C(c1ccc(Cl)cc1Cl)c1ncc(C(F)(F)F)cc1Cl (centres undefined)	-1.3%	0	0.0	-1.5	4	17
CCOc1ccc(Br)cc1S(=O)(=O)Nc1ncn[nH]1	0.1%	6	1.0	-2.9	-8	9
COc1ccc(NC(=O)c2cc(=O)[nH]c3ccccc23)cc1S(=O)(=O)N1CCOCC1	0.5%	2	0.3	-2.0	5	-4
O=C(c1ccccc1)n1c(=S)nc2ccccn21	1.0%	3	-1.4	-7.2	9	-4
COc1ccccc1-n1ccn(CC(=O)Nc2ccc(C)cc2Cl)c(=O)c1=O	-0.6%	-4	-0.4	-4.4	4	-7
O=C(NN1C(=O)/C(=C/c2cccc(O)c2)SC1=S)c1ccccc1O	2.9%	-28	1.2	1.1	·	-16
N#Cc1c2c(nc(N)c1-c1ccccc1)CCCCC2	-2.0%	10	-0.6	0.7	9	-6
CS(=O)(=O)Nc1ccccc1C(=O)N1CCCC1	5.8%	7	0.2	3.0	3	-7
CCNc1nc(NCC)nc(OCCOC(=O)Nc2ccccc2)n1	-0.2%	-2	-0.3	3.8	5	-1
COc1cc(C2NC(=O)N(C)C(C)=C2C(=O)OCc2ccccc2)cc(Br)c1O (centres undefined)	4.6%	-8	0.5	-2.0	-14	11
O=C(NC1CC1)C(=O)c1c(-c2ccccc2)[nH]c2ccccc12	-1.0%	1	0.1	-4.4	1	-2
NC(=O)NC(=O)COC(=O)c1cccnc1Nc1ccccc1F	9.0%	6	0.5	-0.4	6	-30
CCOC(=O)c1c(NC(=O)COC(=O)c2cnccn2)sc(C(=O)NC)c1C	0.0%	-4	-0.2	0.1	16	10
O=C1NC(NS(=O)(=O)c2ccc(Cl)cc2)(C(F)(F)F)C(=O)N1Cc1cccnc1 (centres undefined)	0.4%	10	-0.1	1.4	-8	-4
CC1(C)Cc2c(sc(NC(=O)C(=O)NCC3CCCO3)c2C(=O)O)CO1 (centres undefined)	-0.1%	-3	-1.3	-3.5	·	1
O/C(=C\c1nc2ccccc2nc1/C=C(\O)c1ccccc1)c1ccccc1	9.1%	-23	0.6	-11	-19	3
O=C(c1cc(COc2cccc(C(F)(F)F)c2)on1)N1CCSCC1	2.2%	5	1.7	-3.0	0	-23
O=c1c2cnn(-c3ccccc3)c2ncn1Cc1ccccn1	-3.1%	18	-0.2	-2.0	0	-2
O=C(c1ccc(Br)o1)N1CCN(CCc2ccncc2)CC1	3.5%	13	0.8	-5.0	·	-7

Part of the list above, with each value named:
CS(=O)(=O)Nc1ccccc1C(=O)N1CCCC1
  PINK1 modulator: 5.8%
  Six1-Eya2 blk: 7
  TRPML1 ag: 0.2
  D2 ag: 3.0
  CtBP-E1A inh: 3
  TRPML1 inh: -7
CCNc1nc(NCC)nc(OCCOC(=O)Nc2ccccc2)n1
  PINK1 modulator: -0.2%
  Six1-Eya2 blk: -2
  TRPML1 ag: -0.3
  D2 ag: 3.8
  CtBP-E1A inh: 5
  TRPML1 inh: -1
COc1cc(C2NC(=O)N(C)C(C)=C2C(=O)OCc2ccccc2)cc(Br)c1O (centres undefined)
  PINK1 modulator: 4.6%
  Six1-Eya2 blk: -8
  TRPML1 ag: 0.5
  D2 ag: -2.0
  CtBP-E1A inh: -14
  TRPML1 inh: 11
O=C(NC1CC1)C(=O)c1c(-c2ccccc2)[nH]c2ccccc12
  PINK1 modulator: -1.0%
  Six1-Eya2 blk: 1
  TRPML1 ag: 0.1
  D2 ag: -4.4
  CtBP-E1A inh: 1
  TRPML1 inh: -2

Structures from the list above that have two or more sulfur atoms (four):
SMILES	PINK1 modulator	Six1-Eya2 blk	TRPML1 ag	D2 ag	CtBP-E1A inh	TRPML1 inh
CCc1ccc(-c2ccc(SCC(=O)Nc3nnc(C)s3)nn2)cc1	0.8%	3	-0.8	1.1	-18	4
O=C(NCCC1CCCCN1S(=O)(=O)c1cccs1)C(=O)NCc1ccccc1 (centres undefined)	3.7%	0	0.7	1.7	1	18
NS(=O)(=O)c1ccc(CCNC(=O)c2cc3ccccc3s2)cc1	0.1%	-2	-0.6	4.3	0	-8
O=C(NN1C(=O)/C(=C/c2cccc(O)c2)SC1=S)c1ccccc1O	2.9%	-28	1.2	1.1	·	-16

(list continues)
SMILES	PINK1 modulator	Six1-Eya2 blk	TRPML1 ag	D2 ag	CtBP-E1A inh	TRPML1 inh
CCn1nc(C)c(CN2CCCC(C(=O)c3cccc(OC(C)C)c3)C2)c1C (centres undefined)	-0.7%	1	0.2	-6.7	·	3
CN1CCN(c2ccc3c(c2)C2CC3CCN2C(=O)OCc2ccccc2)CC1 (centres undefined)	1.4%	-28	3.7	-2.2	-21	-11
CC(C)NC(=O)Cn1cc(C#N)c2cc(Br)ccc21	4.4%[38.3 µM]	5	1.0	-2.4	8	11
Cc1cc(SCC(=O)NN=C2CCN(C(C)C)CC2)c(C)cc1Br	-1.0%	6	1.9	-0.4	10	15
COCC(=O)N1CCC(Oc2ccc(C(=O)N3CCSCC3)cc2)CC1	-0.1%	1	-0.2	-0.2	-3	3
O=C(NCCc1c[nH]c2ccccc12)c1cncc(Br)c1	-0.3%	-1	-1.6	1.6	2	-8
O=C(Cc1ccc(F)cc1)NCCc1cnc[nH]1	0.2%	-1	-0.2	1.3	2	-16
CCOC(=O)c1c(NC(=O)C(=O)N/N=C(\C)c2ccc(OC)cc2)sc2c1CCCCC2	11%	2	-0.8	-6.1	4	25
O=C(COc1ccc2c(-c3ccccc3)cc(=O)oc2c1)Nc1ccc(CCO)cc1	1.5%	-1	-0.3	5.6	·	-7
Cc1cccc(C)c1NC(=O)N1CCN(c2nc3ccccc3s2)CC1	-2.0%	-2	0.6	1.2	-11	-13
Cc1cccc(CN2CCC(CNC(=O)Cn3ncc4c([nH]c5ccc(C)cc54)c3=O)CC2)c1	0.2%	·	2.5	·	·	-14
Fc1ccccc1N1CC(c2ccccc2)C(c2cccs2)=N1 (centres undefined)	?	148	-0.1	-0.5	113	-6
O=C(O)COc1ccccc1/C=N/Nc1ccc(S(=O)(=O)N2CCOCC2)cc1[N+](=O)[O-]	1.6%	-12	0.1	-1.9	-29	-8
CCOC(=O)c1c(CSC(=N)N)n(-c2ccccc2)c2cc(Br)c(OC(C)=O)cc12	-2.5%	-1	0.8	-4.0	1	17
Cc1cccc(NC(=O)c2c(NC(=O)c3ccco3)sc3c2CCC(C)C3)c1 (centres undefined)	6.3%	·	0.9	·	·	9
Cc1ccc(NC(=O)CSc2nnc(N)s2)cc1S(=O)(=O)N1CCOCC1	-0.5%	-21	1.0	-7.5	-12	22
CCC(C)NC(=O)c1cnn2c1NC(c1cccs1)CC2C(F)(F)F (centres undefined)	0.9%	0	-0.5	-1.5	9	12
CCN(CC(=O)Nc1ccc(OC)cc1)CC(=O)Nc1cccc(C#N)c1	-0.6%	2	-0.5	0.5	11	-14
CC1CCN(CCCNC(=O)c2ccc3c(=O)n(CCc4ccccc4)c(=O)[nH]c3c2)CC1	-3.2%	3	0.0	-5.4	4	44
NC(=O)NCc1ccccc1Cl	-0.9%	1	1.0	-0.7	2	17
COc1ccc(/C=N/NC(=O)CCn2nc(C)cc2C)cc1	0.8%	-14	-1.1	-3.0	1	5
O=C(NCC1CCCO1)c1ccccc1-c1nc(-c2ccccc2F)no1 (centres undefined)	1.5%	2	1.3	1.4	3	-3
CC(C)N1C(=O)C(=O)N(CC(=O)N2CCc3ccccc32)C1=O	-0.3%	2	-0.6	-2.6	·	-3
CC(=O)Nc1ccc(C(=O)OCC(=O)Nc2c(C)n(C)n(-c3ccccc3)c2=O)cc1	0.7%	0	4.6	5.7	-4	22
CCOC(=O)Cn1c(=O)cc(C)c2ccccc21	-1.8%	-3	0.0	2.7	·	-1
CNc1nc(NCC2CCCCC2)c2sccc2n1	?	-10	11	-2.7	-6	·
Cc1ccc(S(=O)(=O)/N=C(/Nc2ccccn2)c2ccc(Cl)cc2)cc1	-1.6%	-4	-0.5	-5.3	2	4
CC(=O)c1cccc(NC(=O)c2ccc(-c3ccccc3[N+](=O)[O-])o2)c1	0.6%	-14	-0.7	0.0	-4	-9
COc1ccc(C(=O)OCC(=O)Nc2cccc(S(=O)(=O)NC3=NCCCCC3)c2)cc1[N+](=O)[O-]	0.8%	-4	1.8	-3.8	3	0
Cc1ccc(S(=O)(=O)c2cc3c(=O)n4ccccc4nc3n(CCc3ccccc3)c2=N)cc1	2.3%	8	-0.4	-3.3	2	-5
COc1ccc(CCNC(=O)C23CCC(C)(C(=O)C2=O)C3(C)C)cc1OC (centres undefined)	5.0%	2	0.8	-3.7	-3	25
CCN(C(=O)CCS(=O)(=O)c1cc2[nH]c(=O)c(=O)[nH]c2cc1C)c1ccccc1	1.2%	·	0.7	·	·	-3
O=C(Cc1ccccc1)Nc1ccc(S(=O)(=O)N2CCOCC2)cc1	6.5%	0	0.0	0.9	0	7
COc1ccc(C(=O)Nc2ccccc2)cc1S(=O)(=O)Nc1cc(C)on1	-1.5%	13	0.0	-2.9	0	3
O=C(COC(=O)c1ccccc1O)Nc1cccc2ccccc12	4.7%	15	0.1	-1.9	0	-3
COc1ccc(C(=O)Nc2ccc3c(c2)nc(CN2CCN(C(C)=O)CC2)n3C)cc1	-0.3%	0	-0.3	0.4	-2	28
COc1cc(C(=O)Nc2ncccc2C)ccc1OCC(=O)N1CCOCC1	0.7%	7	1.7	1.3	-4	-2
COc1cc(OC)c(NC(=O)CCc2nc(C3=CCN(Cc4cccc(Cl)c4)CC3)no2)cc1Cl	-0.8%	·	-0.6	·	·	4
C=CCSc1ncccc1C(=O)NCc1ccc(C)cc1	-3.1%[38.3 µM]	3	4.2	-2.3	0	3

This is a random part of the collection. About 1% of those tested had a hit in this group.
